Rango release inh: prevents RanGTP from dissociating the Rango-importin beta complex. O95149+P62826. Biochemical FRET Rango-importin beta, RanGTP-induced dissociation. Potency, µM (titrated, usually from 46.1 µM), without a hit: at the highest dose activity change, negative = inhibition. 0.071% of 340,000 active; active means falling FRET ratio curve, often poorly fitted, with flat reads before Ran was added; inconclusive means other falling curves, or compound fluorescence or quenching; inactive means flat or rising ratio curve;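 note: potency is the fitted concentration of half-maximal effect; % of control where 0% means no effect; nearly all actives have a fitted effect of over 45% in size; -100% = wells without RanGTP and RCC1; the record marks most hits as doubtful in a second field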
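Compounds preincubate 5 min with complex of recombinant Rango and importin beta in PBS with 1 mM DTT. Ran (0.6 uM) loaded with 2 mM GTP plus 0.2 uM RCC1 starts dissociation; FRET is recorded 45 min later.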
Rango-impB inh: prevents formation of the Rango-importin beta complex | Rango CFP/YFP FRET sensor + importin beta, 45 min | Potency, µM (top dose mostly 92.2 µM), without a hit: at the top dose inhibition of complex formation | 0.031% of 340,000 active; active = rising FRET ratio curve, often small or poorly fitted; inconclusive = mostly compound fluorescence or quenching in the first reads; inactive = flat curves in all reads;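 note: potency is the fitted concentration of half-maximal effect; 0% = DMSO wells and 100% = buffer wells lacking importin beta; nearly all actives have a fitted effect of over 15% in size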
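Inhibition scored from the CFP 486 nm/YFP 530 nm FRET ratio 45 min after adding 0.125 microM importin beta to 50 nM Rango biosensor preincubated 5 min with compound (room temperature, PBS with DTT, Tween-20, BSA). No-importin wells as positive control.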
miR-21 FLuc: miR-21 reporter, rising signal | HeLa miR-21 FLuc reporter, luciferase, 48 h | Potency, µM (highest dose often 38.3 µM), inactives show top-dose reporter change, positive = more light | 340,000 tested, under 10 active | AID 2288; active = well fitted rising curve with a large enough effect; inconclusive = small, poorly fitted or top-dose-only effect; inactive = no such curve, though single readings can be large or run the other way;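 note: % of control where 0% means no effect; miR-21 action dims this reporter so a rising signal means less miR-21 action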
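HeLa miR-21-FLuc reporter line, endogenous miR-21; 2000 cells/well in DMEM/10% FBS; compound titration up to ~40uM final, 48 h, 37 degree Celsius; luciferase detection reagent, 15 min lysis, CCD luminescence.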
GLA inh pH 4.5: alpha-galactosidase A (human) inhibition, pH 4.5; P06280; purified enzyme, 4-MU-alpha-Gal fluorescence, pH 4.5; activity change, negative = inhibition, % at 105 µM; 230,000 tested, under 10 active; AID 1467; inconclusive = small, poorly fitted or top-dose-only inhibition, or a rising curve; inactive = flat fitted curve, though single readings scatter; no compound was filed as active;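 note: 0% = full activity with enzyme and -100% = basal without enzyme; dose as in the result columns while the protocol names 77 µM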
Target sequence (P06280 whole entry, looked up): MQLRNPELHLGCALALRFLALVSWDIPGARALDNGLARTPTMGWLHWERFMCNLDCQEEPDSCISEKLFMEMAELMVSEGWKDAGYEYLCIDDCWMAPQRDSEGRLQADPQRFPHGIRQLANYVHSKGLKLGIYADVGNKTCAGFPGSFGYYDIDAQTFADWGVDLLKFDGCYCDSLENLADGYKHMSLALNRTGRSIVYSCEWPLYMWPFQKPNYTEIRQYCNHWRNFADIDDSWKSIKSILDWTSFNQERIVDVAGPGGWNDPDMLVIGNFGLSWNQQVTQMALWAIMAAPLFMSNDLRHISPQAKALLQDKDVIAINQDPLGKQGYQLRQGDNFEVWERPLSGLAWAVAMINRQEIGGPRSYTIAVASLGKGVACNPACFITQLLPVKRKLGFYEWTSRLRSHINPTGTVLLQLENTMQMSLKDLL
Starred values were filed as active, the others as inactive; ? = inconclusive; · = no result given; & = joins results of further samples; [ ] = dose if it differs, or a comment. This is a subset; the hit share may differ from the screen's.

structure | Rango release inh | Rango-impB inh | miR-21 FLuc | GLA inh pH 4.5
Cc1cc(C)nc(/N=C/c2c(O)n(C)c(=O)n(C)c2=O)n1 | · | · | -3% | 0
O=C(N/N=C/c1cccs1)c1cccc(S(=O)(=O)Nc2ccc(Cl)cc2)c1 | 7% | -2.9% | 3% | 23
COc1cccc(OC)c1C(=O)Nn1c(-c2cccc(C)c2)nc2ccccc2c1=O | -8% | 1.2% | -1% | 9
O=C1CCC(=O)N1CNc1cccnc1 | 12% | ? | 0% | 4
CCc1ccc(NC(=S)N(CCC(C)C)C2CCN(C(C)=O)CC2)cc1 | 0% | -0.1% | -5% | ·
CC(N=C1CC(C)(C)CC(=O)/C1=C(/O)CCCN1C(=O)c2ccccc2C1=O)C(=O)O (configuration not stated) | 4% | 3.7% | 0% | -10
Cc1csc(NC(=O)Nc2ccc(Cl)cc2)n1 | -12% | -0.9% | -33% | 1
OCCNC(=S)Nc1cccc(Cl)c1Cl | -10% | 0.1% | 2% | 3
COc1cc(/C=C2\SC(=S)N(CCC(=O)N3CCCCC3)C2=O)cc(OC)c1OC | -7% | 7.2% | -5% | ·
N#Cc1ccc(C(=O)NC2CCCCCCC2)cc1 | -21% | -3.7% | -65% | ·
COc1ccc(Cc2nnc(NC(=O)c3ccccc3F)s2)cc1 | 10% | -1.7% | -5% | ·
CC#CC(=O)N1CCCC(Cc2cccc(OC)c2)(C(=O)OCC)C1 (configuration not stated) | 2% | 3.0% | -39% | ·
Cn1c(SCC(=O)c2ccc3c(c2)OCO3)nnc1C1COc2ccccc2O1 (configuration not stated) | 0% | -1.2% | -2% | -3
CNc1nc(-c2ccccc2)nc(-c2ccc(OC)cc2)c1C#N | 5% | 6.0% | -9% | 7
Cn1cnnc1Sc1cc(N2CCN(S(=O)(=O)c3ccccc3)CC2)ccc1[N+](=O)[O-] | 8% | -1.1% | -10% | -15
Cc1c(C(=O)O)cccc1-n1c(C)cc(/C=N/NC(=O)c2cc3ccccc3o2)c1C | ? | ? | -18% | 1
CN1CCN(C(=O)c2ccccc2NC(=O)COc2ccccc2Cl)CC1 | -14% | 3.0% | -20% | ·
CCc1ccc(N2CC(C(=O)Nc3nccs3)CC2=O)cc1 (configuration not stated) | 0% | 1.9% | 4% | -6
COc1cc(OC)cc(C(=O)NCc2ccc3c(c2)OCO3)c1 | 1% | 0.2% | -9% | ·
O=C1c2ccccc2C(=O)C1c1ccnc2ccccc12 | ? | ? | -24% | 1

Looked up above.
`O=C1CCC(=O)N1CNc1cccnc1` in Rango release inh has 12%
`Cn1cnnc1Sc1cc(N2CCN(S(=O)(=O)c3ccccc3)CC2)ccc1[N+](=O)[O-]` in miR-21 FLuc has -10%

Sorted by value in Rango release inh (descending): four from the list above
compound	Rango release inh
O=C1CCC(=O)N1CNc1cccnc1	12%
CC(N=C1CC(C)(C)CC(=O)/C1=C(/O)CCCN1C(=O)c2ccccc2C1=O)C(=O)O (configuration not stated)	4%
CCc1ccc(N2CC(C(=O)Nc3nccs3)CC2=O)cc1 (configuration not stated)	0%
OCCNC(=S)Nc1cccc(Cl)c1Cl	-10%

(cont.)
structure | Rango release inh | Rango-impB inh | miR-21 FLuc | GLA inh pH 4.5
COc1ccc(-c2ccc3c(N)c(C(=O)c4ccc(OC)c(OC)c4)sc3n2)cc1 | ? | ? | -7%&-10% | -10
COc1ccc(-c2c(C)nc3c(-c4ccccn4)cnn3c2N)cc1 | -14% | 0.7% | -71% | ·
CC(OC(=O)CCCc1nc2ccccc2s1)C(=O)NC(N)=O (configuration not stated) | 1% | 0.7% | 3% | -6
O=C(OCc1nnc(-c2ccccc2)o1)c1cc([N+](=O)[O-])ccc1Cl | -1% | -0.2% | 1% | 4
CCN(CC(=O)NC(=O)NCc1ccccc1)Cc1ccccc1 | 8% | 0.9% | 0% | ·
CCN(CC(=O)Nc1ccc(C(C)=O)cc1)CC(=O)Nc1ccccc1C(F)(F)F | 2% | -1.0% | 0% | -4
CCCCn1nnc(NC(=S)NC(=O)c2ccc(OCC)c([N+](=O)[O-])c2)n1 | -4% | -3.1% | 0% | ·
COc1ccc(C(=O)NCc2ccccc2OC)cc1 | 13% | 5.5% | -16% | 1
O=C(NCc1cccc(C(F)(F)F)c1)c1cc(Cl)cc(Cl)c1 | 0% | -2.8% | 0% | -2
N#CCCN(Cc1cccnc1)C(=S)NC(=O)c1ccc(S(=O)(=O)N2CCCC2)cc1 | 3% | 2.4% | -3% | 3
O=C(Cn1cc(C(F)(F)F)ccc1=O)Nc1ccccc1 | 0% | 2.1% | -29% | 2
COc1ccc(C2/C=C\CN(CC3CC3)CC(=O)N2Cc2ccc(F)cc2)cc1 (configuration not stated) | -7% | ? | 11% | -2
CCOC(=O)C1C(=O)C(C(=O)OCC)C(c2cccnc2)NC1c1cccnc1 (configuration not stated) | ? | ? | -1% | 0
COc1cc(NC(=O)CCS(=O)(=O)c2ccc3nc(C)sc3c2)cc(OC)c1OC | 16% | -0.1% | 1% | ·
COc1ccc(N2CCN(C3CCCN(C(=O)CCN4CCCCO4)C3)CC2)cc1 (configuration not stated) | 1% | -1.1% | 0% | ·
Cc1cc(Cl)ccc1Oc1cccc(C(=O)/C(C#N)=C/N(C)C)c1 | 1% | 0.2% | -7% | -3
c1ccc(Oc2ccc3ccccc3n2)cc1 | 1% | 1.4% | -21% | -3[21.1 µM]
COCCCN1C(=O)c2ccc(C(=O)N3CCN(c4ccccc4OC)CC3)cc2C1=O | 7% | -0.7% | 0% | ·
COc1ccc(-n2nnc3c(=O)n(CC(=O)OCc4ccccc4)cnc32)cc1 | 0% | -1.8% | 0% | 4
Cc1ccc(-c2cc(C(=O)NC3=NCCS3)c3cc(Br)ccc3n2)o1 | · | · | 1% | -6

One compound at a time (already shown). Order of values: Rango release inh | Rango-impB inh | miR-21 FLuc | GLA inh pH 4.5
COCCCN1C(=O)c2ccc(C(=O)N3CCN(c4ccccc4OC)CC3)cc2C1=O across the screens: 7% | -0.7% | 0% | ·
COc1cc(NC(=O)CCS(=O)(=O)c2ccc3nc(C)sc3c2)cc(OC)c1OC across the screens: 16% | -0.1% | 1% | ·

The results go on.
structure | Rango release inh | Rango-impB inh | miR-21 FLuc | GLA inh pH 4.5
COC(=O)CN1C(=S)N(c2ccc(Cl)cc2)C(=O)C1CC(=O)Nc1ccc(Cl)cc1 (configuration not stated) | 4% | -0.7% | 1% | ·
COc1ccc(C2=CSC3=NCCN23)cc1Cl | -17% | 2.2% | -1% | ·
COc1ccc(-n2nnnc2CNC(=O)c2ccc(S(=O)(=O)N3CCOCC3)cc2)cc1 | 1% | 1.0% | · | ·
CC(C)(C)C(=O)Nc1ccc2c(c1)OCCOCCOc1cc(NC(=O)C(C)(C)C)ccc1OCCOCCO2 | -9% | 5.6% | -8% | 10
Cc1ccccc1S(=O)(=O)NCC1CCCO1 (configuration not stated) | -10% | -0.1% | 0% | ·
NS(=O)(=O)c1ccc(N2CCN(CCOc3ccc(Cl)cc3)CC2)nc1 | 0% | 4.5% | 21% | ·
CNC(=O)CN1C(=O)C2C3C=CC(C3)C2C1=O (configuration not stated) | 1% | -0.5% | -8% | -7
CC(=O)c1ccc(NC(=O)C2=CC(c3cccs3)=NS(=O)(=O)N2C)cc1 | -6% | 3.3% | -7%&-2% | ·
CCOP(=O)(c1ccccc1)C1(C#N)CCCC1 (configuration not stated) | 4% | -0.2% | -1% | -18
COc1cc(/C=N/Nc2ccc(C(F)(F)F)cn2)cc(OC)c1O | 1% | 1.5% | 2% | -4
O=C(c1cc(Br)ccc1OC(F)F)N1CCN2CCCC2C1 (configuration not stated) | 0% | -1.4% | · | ·
COc1ccc(OC)c2sc(NC(=O)C3CC3)nc12 | -3% | -0.6% | 11% | 2
COc1ccc(CCNC(=O)C2CC3Cn4c(nc5ccccc54)C3N2c2ccccc2)cc1 (configuration not stated) | -6% | -1.2% | · | ·
COc1ccccc1NC(=S)N(CCN1CCCCCC1)Cc1cccs1 | -2% | 0.2% | 3% | 9
Cc1nccn1CCCNC(=O)CC1C(=O)NCCN1Cc1ccccc1C(F)(F)F (configuration not stated) | -1% | ? | 0% | -1
CCOCCOC(=O)CCSc1n[nH]c(=O)[nH]c1=O | 3% | 3.3% | -3% | 6
COC(=O)Nc1ccc(S(=O)(=O)Nc2ccc(O)cc2)cc1 | -7% | -4.0% | -3% | 6
COC(=O)COc1ccc(S(=O)(=O)NC2CCCCCC2)cc1 | -1% | 2.8% | -3% | 2
COCC(C)N=C1NN=C(c2cc(C)n(Cc3ccccc3Cl)c2C)CS1 (configuration not stated) | 1% | -1.2% | -10% | 1
CCCCN(C)CCC(=O)Nc1ccc(Cl)cc1 | 12% | ? | -4% | -6
CN(Cc1cn(C)nc1-c1cccc(Cl)c1)CC1CCCCO1 (configuration not stated) | -7% | 0.5% | -1% | 3
CNC(=S)Nc1ccc2nc(C)oc2c1 | -4% | 0.2% | -2% | 7
Cc1cccc2cc(C#N)c(NCCNS(=O)(=O)c3ccccc3)nc12 | -15% | ? | -14% | 1
COC(=O)NCc1ccc(S(=O)(=O)N2CCOCC2)cc1 | -4% | 0.5% | -1% | -4
O=[N+]([O-])c1cc(S(=O)(=O)Nc2cccc(C(F)(F)F)c2)ccc1-n1nnc2ccccc21 | -4% | -5.3% | 12% | -19
COc1ccc(C(=O)Nc2cc(C(C)=O)c(/C=C/N(C)C)oc2=O)cc1 | ? | ? | -26% | -26
COc1ccc2[nH]c3c(c2c1)CCN1C(=O)N([C@@H](C)C(=O)NC2CC2)C(=O)[C@]31C | ? | -1.0% | 0% | ·
O=C(OCc1cc(Cl)ccc1OC(F)F)c1cccnc1 | -3% | 3.0% | -3% | -5
CC(=O)n1cc(/C=C2/N=C(c3ccccc3)OC2=O)c2ccccc21 | ? | ? | -2% | -5
CC(C)=NNc1nc(-c2ccc(N3C(=O)CCC3=O)cc2)cs1 | -18% | -2.5% | 4% | 3
O=C1OC(Oc2ccccc2)(c2ccccc2)c2ccccc21 (configuration not stated) | -4% | -0.5% | -4% | 1
COc1ccc([C@@H]2Sc3ccccc3N(CCN(C)C)C(=O)[C@@H]2OC(C)=O)cc1 | 18% | 2.2% | 2% | -4&1&-1
c1ccc(-c2sc3ccccc3c2-c2ccc(OCCN3CCCC3)cc2)cc1 | -8% | 7.5% | · | ·
COc1ccc(/C=C2\CCn3c2nc2cc(C(=O)O)ccc2c3=O)cc1 | -2% | 1.4% | 0% | ·
CSCC[C@H](NC(=O)Nc1cccc(C(F)(F)F)c1)C(=O)O | 12% | 2.0% | 0% | -7
Nc1ccc(C(=O)N/N=C/c2cn(Cc3cccc(F)c3)c3ccccc23)cc1 | 1% | -0.2% | -11% | ·
CCN(CC)S(=O)(=O)c1cc([N+](=O)[O-])ccc1N=Nc1c(O)n(C)c2ccccc12 | -7% | 5.1% | -7% | -4
O=Cc1c(Cl)cccc1Cl | -5% | 6.3% | · | ·
CCOC(=O)C1C2C=CC3(CN(Cc4cccs4)C(=O)C13)O2 (configuration not stated) | 27% | -1.5% | -8% | -5
CC1(C)Oc2ccc3ccc(=O)oc3c2C(/C=N/O)C1=O (configuration not stated) | 2% | 2.6% | -5% | 4
O=C(CN(Cc1ccccc1)S(=O)(=O)c1ccc2c(c1)OCCO2)N/N=C/c1cccc(Br)c1 | ? | -0.8% | -15% | -13
CCOC(=O)CCn1c(=S)n(CCC(=O)OCC)c2ccccc21 | 2% | 1.7% | -1% | -6
N#CCCSc1ccccc1NC(=O)c1ccc(S(=O)(=O)N2CCCC2)cc1 | · | · | -11% | 5

Structures shown so far with bromine:
structure | Rango release inh | Rango-impB inh | miR-21 FLuc | GLA inh pH 4.5
Cc1ccc(-c2cc(C(=O)NC3=NCCS3)c3cc(Br)ccc3n2)o1 | · | · | 1% | -6
O=C(c1cc(Br)ccc1OC(F)F)N1CCN2CCCC2C1 (configuration not stated) | 0% | -1.4% | · | ·
O=C(CN(Cc1ccccc1)S(=O)(=O)c1ccc2c(c1)OCCO2)N/N=C/c1cccc(Br)c1 | ? | -0.8% | -15% | -13
